Screens deposited in PubChem by ICCB-Longwood Screening Facility, Harvard Medical School.
HCMV NEC inh: inhibitors of HCMV UL50-UL53 interaction, biochemical, HTRF. normalized percent inhibition. inhibition, % (no concentration beside the values). actives 0.15% (n = 190,000). AID 1918969, 2023;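 active means both replicates at 50% or more, plus weaker picks with an unusually low signal ratio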;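 further: stock transfer was 100 nL into about 20 µL; 0% = negative control wells and 100% = wells with untagged competitor protein; inactives centre near -12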
Sa growth inh: S. aureus growth inhibition at 42 and 30 °C, primary screen, LtaS inhibitor project, RN4220, two temperatures; OD600, 20 h, 42 °C; hits give low values; relative growth, % (concentration not given with the values); actives 0.53% (n = 170,000);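 active means growth at 42 °C up to 50% and 20 or more points under that at 30 °C, or under 10% at both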;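 further: 300 nL library stock went into each well; scaled to the means of positive and negative controls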
GIV-Gai inh: inhibitors of GIV peptide binding to Galpha-i3, primary screen, biochemical, fluorescence polarization, FITC-GIV GBA peptide, rat Galphai3; Guanine nucleotide-binding protein G(i) subunit alpha-3 (Rattus norvegicus), P08753; 90 min; hits give low values; scaled: aluminum fluoride 0%, vehicle 100%; percent of control (FP), % (no concentration beside the values); actives 0.42% (n = 210,000);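 active means replicate mean at 85% of control or lower, very high polarization wells dropped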;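 further: wells of about 15 µL received 100 nL stock; the first replicate is given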
Target sequence (P08753 whole entry, looked up): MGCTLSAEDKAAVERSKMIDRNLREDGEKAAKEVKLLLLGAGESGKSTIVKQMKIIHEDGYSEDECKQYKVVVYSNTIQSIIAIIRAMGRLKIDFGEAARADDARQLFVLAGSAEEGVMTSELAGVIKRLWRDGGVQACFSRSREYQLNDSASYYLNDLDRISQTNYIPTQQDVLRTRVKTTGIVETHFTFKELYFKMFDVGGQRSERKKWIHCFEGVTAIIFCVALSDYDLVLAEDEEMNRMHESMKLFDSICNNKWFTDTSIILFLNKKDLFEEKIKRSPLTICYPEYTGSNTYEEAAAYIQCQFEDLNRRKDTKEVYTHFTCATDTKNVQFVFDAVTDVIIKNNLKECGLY
Sa growth inh second temp: second read-out of Sa growth inh, no call of its own (marks repeat the call); relative growth, %; measured here: growth at 30 °C;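 optical density after 20 h as mean of two plates; 100% = untreated growth and lower means inhibition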
* hit, by the source's call; · = not tested or not shown; & = joins results of further samples.

1: Cc1ccc(S(=O)(=O)N2CC(C)C(=O)CC2C)cc1 (configuration not stated)
2: O=C(Nc1ccccc1C(=O)c1ccccc1)c1cnn(-c2ccccc2)c1
3: CCCc1ccc(CC2(CC(=O)OCC)C(=O)c3ccccc3C2=O)cc1
4: CN(C(=O)COC(=O)c1ccc(Cl)c(N)c1)c1ccccc1
5: COC(=O)c1sc(NC(=S)Nc2ccn(C)n2)c(C(=O)OC)c1C
6: CC1(C)CC2(CC(C)(C)N1)OC(=O)N(C1CC1)C2(C)O (configuration not stated)
7: CC(C)NC(=S)N1CCN(Cc2c(Cl)cccc2Cl)CC1
8: Cc1ccc(C(C)C)c(OCC(=O)N=Nc2c(O)n(CN3CCOCC3)c3ccccc23)c1
screen / no.	1	2	3	4	5	6	7	8
HCMV NEC inh	12	-30	·	-5	-6	-22	6	-11
Sa growth inh	107	·	95	125	119	102	98	89
Sa growth inh second temp	91	·	86	86	96	80	100	100
GIV-Gai inh	103	105	101	·	108	103	109	·

9: O=C1C2ON(c3ccccc3)C(c3ccncc3)C2C(=O)N1c1ccc(N2CCOCC2)cc1 (configuration not stated)
10: Cn1c(N)nc(N)c(NC(=O)COc2ccc(Cl)cc2Br)c1=O
11: CCCn1c(CCc2ccc(NC(=O)C3CCC3)cc2)nc2ccccc21
12: CCCCN(CC)Cc1ccc(CNC(=O)Nc2ccccc2)o1
13: C(=C1/CCCC2=C1Nc1ncnn1C2c1ccccc1)/c1ccccc1 (configuration not stated)
14: O=C(O)c1ccc(Nc2ncnc3c2cnn3-c2ccccc2)cc1
15: CCOc1ccc(CN2C(=O)C(=O)c3cccc(C)c32)cc1OC
16: Cc1ccc(-n2nc(N3CCCN(C(=O)CCC(=O)N4c5ccccc5CC4C)CC3)ccc2=O)cc1 (configuration not stated)
screen / no.	9	10	11	12	13	14	15	16
HCMV NEC inh	-24	-37	-36	·	-16	4	6	-48
Sa growth inh	92	116	·	118	108	95	94	·
Sa growth inh second temp	83	76	·	87	91	99	74	·
GIV-Gai inh	95	·	104	101	·	·	103	99

Some of these compounds in order of the Sa growth inh second temp value, rising.
nr	canonical_smiles	Sa growth inh second temp
9	O=C1C2ON(c3ccccc3)C(c3ccncc3)C2C(=O)N1c1ccc(N2CCOCC2)cc1 (configuration not stated)	83
13	C(=C1/CCCC2=C1Nc1ncnn1C2c1ccccc1)/c1ccccc1 (configuration not stated)	91
14	O=C(O)c1ccc(Nc2ncnc3c2cnn3-c2ccccc2)cc1	99

Next section
17: CCOC(=O)c1cccc(O)c1O
18: COc1ccc(/C=C/C(=O)Nc2ccc(Cl)c(Cl)c2)cc1
19: Cc1ccc(S(=O)(=O)NC2CC3CCC2(C)C3(C)C)cc1 (configuration not stated)
20: Fc1ccc(CNc2nc(-c3ccc(Cl)cc3)cc(C(F)(F)F)n2)cc1
21: O=C(Nc1ccc(Cl)cc1)Nc1cc(C(=O)NC2CC2)ccc1N1CC2CC(C1)c1cccc(=O)n1C2 (configuration not stated)
22: COc1ccc2c(c1)c1c(c(=O)n(-c3ccccc3C)c(=O)n1CC(N)=O)n2C
23: Cc1ccc(C)c(OCCCn2c(-c3ccc(Cl)cc3)nc3ccccc3c2=O)c1
24: Cc1cccc(OCc2cc(=O)n3c(C)csc3n2)c1
screen / no.	17	18	19	20	21	22	23	24
HCMV NEC inh	-14	-23	24	-2	-2	·	-23	-12
Sa growth inh	88	93	84	88	38	106	107	·
Sa growth inh second temp	81	86	78	82	41	86	91	·
GIV-Gai inh	105	104	96	99	106	102	103	98

25: CCN(CC)CC(=O)Nc1c(C#N)cnn1-c1ccccc1
26: COc1ccc(-c2cn3c(n2)sc2cc(C(=O)Nc4cc(Cl)ccc4C)ccc23)cc1
27: Cc1nnc(SC(C(=O)NC(N)=O)c2ccccc2)n1C1CCCCC1 (configuration not stated)
28: COc1cc(C(=O)NCCS(=O)(=O)N2CCN(c3ccccc3)CC2)cc(OC)c1OC
29: Fc1ccccc1Cc1nnc2n1N=C(c1ccc(Cl)cc1)CS2
30: Cc1ccc(OCCSc2nc3ccc(NC(=O)COc4ccc(F)cc4)cc3s2)cc1
31: CCOc1ccc(NC(=O)CN(C)S(=O)(=O)c2ccc3c(c2)C(=O)NCC(=O)N3)cc1
32: Cc1ccc(C)n1-c1ccc(C(=O)O)c(C(=O)O)c1
screen / no.	25	26	27	28	29	30	31	32
HCMV NEC inh	10	·	-28	·	-11	-12	-8	11
Sa growth inh	103	84	88	90	94	97	·	94
Sa growth inh second temp	101	86	99	84	92	91	·	91
GIV-Gai inh	106	109	·	101	·	98	105	60*

33: CC1CCC(Nc2c(-c3cccc(Br)c3)nc3c(C#N)c[nH]n23)CC1 (configuration not stated)
34: COC(=O)c1ccc2c(c1)NC(=S)c1ccccc1S2
35: C(=C\c1nc2ncnc(N3CCCCC3)c2[nH]1)/c1ccccc1
36: NC(=O)Cn1nc2n(Cc3cccs3)c(=O)c3sccc3n2c1=O
37: CCOCc1cnc(C)nc1NCC(=O)c1c(C)[nH]c2ccc(OC)cc12
38: COc1ccc(CCN2CC(=O)N(c3ccc(C)c(C)c3)[C@@H]3CS(=O)(=O)C[C@@H]32)cc1OC
39: C=CCn1c(C(O)c2ccccc2)nc2ccccc21 (configuration not stated)
40: CC(C)(O)C#Cc1ccc(C#N)cc1
screen / no.	33	34	35	36	37	38	39	40
HCMV NEC inh	·	·	-12	-10	-12	2	-12	-27
Sa growth inh	83	130	·	·	101	·	97	91
Sa growth inh second temp	69	81	·	·	85	·	94	88
GIV-Gai inh	108	105	103	102	109	104	101	102

41: CC(=O)N1CCN(c2ccc(Oc3ncnc4sccc34)cc2)CC1
42: CCCn1c(=O)oc2cc(NS(=O)(=O)c3ccc4c(c3)c(=O)n(C)c(=O)n4C)ccc21
43: O=C(CSc1n[nH]c(-c2ccccc2Cl)n1)NCCc1ccccc1
44: CCOC(=O)C1CCN(C(=O)C2CCCN(S(=O)(=O)c3cc(-c4noc(C)n4)sc3C)C2)CC1 (configuration not stated)
45: CCOC(=O)c1n[nH]n(-c2ccc(Cl)cc2)c1=O
46: Cc1cccc(-c2nc3c(c(SCc4ccccc4Cl)n2)Cc2c(CO)cnc(C)c2O3)c1
47: Cc1ccc(N2CCN(C(=O)c3noc4c3COc3ccc(C)cc3-4)CC2)c(C)c1
48: COc1ccc2oc(C(=O)NCCNc3ncc(C(F)(F)F)cc3Cl)c(C)c2c1
screen / no.	41	42	43	44	45	46	47	48
HCMV NEC inh	-24	11	·	-10	2	·	·	-16
Sa growth inh	105	·	79	·	106	97	78	85
Sa growth inh second temp	85	·	86	·	95	83	97	95
GIV-Gai inh	·	104	106	109	99	101	103	·

49: COc1ccc(CCNC(=O)c2ccccc2N)cc1
50: Cc1ccc(C2=NNC(=O)C(c3cn(CCC#N)c4ccccc34)C2)cc1 (configuration not stated)
51: COc1ccc(-c2nn3c(-c4ccc(C)cc4)nnc3c3ccccc23)cc1
52: CC1CCN(C(=O)c2cc(Cl)ccc2Cl)CC1
53: Cc1ccc(CN(CC(=O)N2CCN(c3ccccc3)CC2)S(=O)(=O)c2ccc(C)cc2)cc1
54: CN(C)c1cccc(C(=O)NCc2ccccc2)c1
55: Cc1nc2sccn2c(=O)c1S(=O)(=O)Nc1ccc(N2CCC(C)CC2)cc1
56: O=S(=O)(Nc1ccc2cn[nH]c2c1)c1ccccc1
screen / no.	49	50	51	52	53	54	55	56
HCMV NEC inh	12	-19	-24	2	-12	10	-25	5
Sa growth inh	85	104	91	81	·	129	72	105
Sa growth inh second temp	98	94	83	116	·	106	80	99
GIV-Gai inh	·	110	106	·	100	·	105&100	·

57: COC(=O)CCC(=O)c1oc2ccccc2c1N
58: C=CCn1c(CNC(=O)c2ccc(OC)c(OC)c2)nnc1SCC(=O)Nc1nc(C)cs1
59: COCCNC(=O)CCc1c(C)nc2c(-c3ccc(F)cc3)c(C)nn2c1C
60: COc1cc2nc(SCc3ccc(Cl)cc3)n3nc(CCn4nc(C)cc4C)nc3c2cc1OC
61: CCOC(=O)c1cc(-c2ccc(F)cc2)n(CCC(=O)NCCc2ccc(C)cc2)c1C
62: N#Cc1ccccc1OCC(=O)Nc1ccc2c(c1)OCCCO2
63: CN(c1nnc(NC(=O)NCc2ccc(F)cc2)s1)C1CCCCC1
64: Cc1nc2c(OCc3ccccc3)cccn2c1CC#N
screen / no.	57	58	59	60	61	62	63	64
HCMV NEC inh	-83	-10	1	-14	·	-32	-17	-10&-9
Sa growth inh	·	90	96	100	156	106	103	·
Sa growth inh second temp	·	95	94	83	103	67	55	·
GIV-Gai inh	94	103	104	99	106	·	106	104

With a hit mark in GIV-Gai inh (from the list above):
cpd | Compound | Sa growth inh second temp | GIV-Gai inh
32 | Cc1ccc(C)n1-c1ccc(C(=O)O)c(C(=O)O)c1 | 91 | 60*

New compounds follow
65: N#C/C=C(\Nc1ccc(Br)cc1)c1ccccc1
66: O=C(CSc1ncn[nH]1)Nc1nc(-c2ccccc2)ns1
67: Cc1ncc(CO)c2cc(C(N)=O)c(=Nc3ccc(C(N)=O)cc3)oc12
68: Cn1cc(C(=O)Nc2cccc(Br)c2)c2[nH]c(=O)n(-c3ccc(Cl)cc3)c(=O)c21
69: CC(=O)Nc1ccccc1OCC(=O)NC(=O)Nc1ccc(C)cc1C
70: CCOC(=O)c1cc2ccsc2n1CC(=O)Nc1ccc(OC)c(OC)c1
71: O=C(NCc1ccco1)NCC(F)(F)F
72: Cc1cc(C(F)(F)F)c2c(-c3ccccc3)nn(-c3ccccc3)c2n1
screen / no.	65	66	67	68	69	70	71	72
HCMV NEC inh	0	4	-35	-22	-27	-33	0	·
Sa growth inh	103	75	98	·	85	·	97	91
Sa growth inh second temp	91	48	104	·	89	·	94	96
GIV-Gai inh	·	107	103	105	·	107	105	108

73: COc1ccc(C)cc1NC(=O)C1CCCN(S(=O)(=O)c2ccc3c(c2)CCCN3C(C)=O)C1 (configuration not stated)
74: CCC1(C)Cc2ccccc2-c2nc3n(c(=O)c21)CC(C(=O)O)S3 (configuration not stated)
75: NC(=O)NC(Cc1ccccc1)C(=O)N1CCN(S(=O)(=O)c2ccc(Cl)cc2)CC1 (configuration not stated)
76: CCc1ccccc1NS(=O)(=O)c1cc(Br)cc2c1N(C(=O)C1CC1)CC2
77: C/C(=C\c1ccccc1)CN(C)C1CCN(C)CC1
78: S=C(N/N=C/c1cccnc1)NC1CCCCC1
79: COCCCNC(=O)c1cn(CC(C)C)c(=O)c2c1c1ccccc1n2C
80: Cc1oc(CSCc2cc(C(=O)O)c(C)o2)cc1C(=O)O
screen / no.	73	74	75	76	77	78	79	80
HCMV NEC inh	·	-12	-19	-5	-2	-23	-6	-3
Sa growth inh	92	101	81	99	102	82	106	101
Sa growth inh second temp	85	97	83	93	103	97	94	97
GIV-Gai inh	100	99	·	105	103	·	107	101

81: O=C1C2CCCCC2C(=O)N1c1ccc2[nH]c(=S)sc2c1 (configuration not stated)
82: Cc1ccc(NC(=O)CSc2nnc(N3C(=O)c4ccccc4C3=O)s2)c(C)c1
83: N#Cc1cc(O)c(-n2nnc3ccccc32)cc1C#N
84: CC(C)CN(CC(C)C)S(=O)(=O)Cc1ccccc1
85: CCN1C(=O)c2cccc3c(NC(=O)c4cccc(N5C(=O)CCC5=O)c4)ccc1c23
86: CCCNC(=O)c1c(C)[nH]c(C(=O)OCC)c1C
87: Oc1ccc2ccccc2c1CN1CCc2ccccc2C1
88: O=c1c(Cc2ccccc2O)c(O)nc2n1CCCS2
screen / no.	81	82	83	84	85	86	87	88
HCMV NEC inh	0	·	-11	5	-70	-23	·	1
Sa growth inh	·	75	108	95	98	95	98	106
Sa growth inh second temp	·	95	104	101	93	87	97	88
GIV-Gai inh	107	98	98	111	122	98	97	107

89: Cc1nc2c(C#N)c(C)[nH]n2c(=O)c1Cc1ccccc1
90: O=C(COc1ccc(S(=O)(=O)NCc2ccccc2)cc1Cl)N1CCOCC1
91: Cc1cccc(N2C(=O)C3C(C4=C(O)c5ccccc5C4=O)=NC(c4ccccn4)C3C2=O)c1 (configuration not stated)
92: CCCN1CCC(NCC(C)c2ccccc2)CC1 (configuration not stated)
93: CCn1nc(C)c2c(-c3ccccc3)cc(=O)n(C(C)C(=O)NCCc3ccc(OC)c(OC)c3)c21 (configuration not stated)
94: Cc1ccc(S(=O)(=O)CCC(=O)Nc2ccc(OC(F)(F)F)cc2)cc1
95: NNc1cccc2cccnc12
96: Cc1cc(C)cc(OCC(=O)NC(Cc2c[nH]c3ccccc23)C(=O)O)c1 (configuration not stated)
screen / no.	89	90	91	92	93	94	95	96
HCMV NEC inh	-17	-1	-16	-10	·	·	-47	-29
Sa growth inh	82	107	94	101	112	90	·	116
Sa growth inh second temp	72	74	95	105	82	87	·	96
GIV-Gai inh	97	105	108	107	106	108	123	100
